Bioassay records from PubChem BioAssay.
2A Renilla – lowers the Renilla signal of an FMDV 2A StopGo reporter; HEK cells with a luciferase reporter of 2A StopGo recoding; Potency, µM (top dose mostly 57.5 µM), for the others: at the top dose signal change, negative = less light; 120,000 compounds, 0.32% hits; active means well fitted falling curve with a large enough effect; inconclusive means small, poorly fitted or top-dose-only effect; inactive means no such curve, though single readings can be large or run the other way; further: nearly all actives have a fitted effect of over 55% in size; overnight with compound
2A firefly – lowers the firefly signal of an FMDV 2A StopGo reporter; 120,000 compounds, 0.23% hits; Potency, µM (series often up to 57.5 µM), for the others: top-dose signal change, negative = less light; HEK cells with a luciferase reporter of 2A StopGo recoding; active = well fitted falling curve with a large enough effect; inconclusive = small, poorly fitted or top-dose-only effect; inactive = no such curve, though single readings can be large or run the other way; further: nearly all actives have a fitted effect of over 60% in size; overnight with compound
The depositor's hits bear a star; ? = inconclusive; & = joins results of further samples; [ ] = dose if it differs, or a comment. On the % scale 0 is the no-effect control and ±100 the full control effect; potency means the concentration at half of the fitted maximal effect.

SMILES,2A Renilla,2A firefly
COc1ccc(C)cc1NC(C)c1nc(-c2ccco2)no1 (centres undefined),3%,12%
O=C(c1cc(Cl)ccc1O)N1CCN(S(=O)(=O)c2ccccc2)CC1,197%[activator],-11%
Cc1ccccc1CSc1nc2sc(C)c(C)c2c(=O)n1CCCN1CCOCC1,15%,9%
Cc1ccccc1C(C)Nc1ccc(S(N)(=O)=O)cc1[N+](=O)[O-] (centres undefined),-5%,8%
O=C1Cc2cc(-c3csc(Nc4ccc(F)cc4)n3)ccc2N1,-13%,0%
COC(=O)[C@@H]1[C@H]2C[C@H]3c4[nH]c5ccccc5c4CCN3C[C@@H]2CC[C@@H]1O,-14%,-19%
Cc1c(-c2ccccc2)nc2ccccc2c1C(=O)OCC(=O)NC(C)C,0%,25%
CCCCC(=O)Nc1c(C(=O)N2CCN(c3ccccc3F)CC2)oc2ccccc12,0%,5%
O=C(Nc1ccc2c(c1)OCCO2)c1cc2cc(Cl)ccc2[nH]1,8%,107%[activator]
O=C(c1ccc(F)cc1)N(C1CCCC1)C1CC1,-14%,-5%
COc1ccc(OC)c(NC(=O)Cn2c(=O)n(-c3ccc(Cl)cc3)c(=O)c3c(C)c(C)sc32)c1,-12%,-21%
COc1cc2c(cc1OC)/C(=C/S(=O)(=O)c1ccc(C)c(C)c1)NCC2,190%[activator],13%
CCOC(=O)c1ccc2c(c1)[C@@H]1C=CC[C@@H]1[C@H](c1cccc(OC)c1OC)N2,3%,54%[activator]
COc1cccc(C2C(C(=O)Nc3ccc(C)cc3C)=C(C)Nc3nc4ccccc4n32)c1OC (centres undefined),-10%,-10%
OCCN1CCN(CC/C=C2/c3ccccc3Sc3ccc(C(F)(F)F)cc32)CC1,0%,-19%[11.5 µM]
Cc1ccc(CSc2nc3ccncc3n2Cc2ccc(C(=O)NCCN3CCCC3)cc2)cc1,-10%,12%
Cn1cnc(S(=O)(=O)N2CCC(C(=O)NCc3ccc(Cl)cc3)CC2)c1,-8%&-14%,-9%&-11%
CCOC(=O)c1cnc2cc(C(F)(F)F)ccc2c1Nc1ccc(F)cc1F,-9%,-17%
CC(C)(C)c1nc(C#N)c(NCC(c2cccs2)N2CCOCC2)o1 (centres undefined),2%,-5%
Cc1cccc(C)c1Nc1sc(C(=O)c2ccccc2)c(N)c1C(=O)Nc1ccc(F)cc1,30%,-13%

(cont.)
SMILES,2A Renilla,2A firefly
Cc1cccc(-n2ncc(C(=O)N3CCN(C4CCCCC4)CC3)c2C2CCN(C(=O)OC(C)(C)C)CC2)c1,-17%,-27%
CCCCCn1c(NCCCOCC)nc2c1c(=O)[nH]c(=O)n2C,13%,23%
CCOC(=O)NC(CNC(=O)c1cccc(OC)c1)CC(C)C (centres undefined),19%,20%
c1ccc(-c2csc3ncnc(Oc4ccc5ccccc5c4)c23)cc1,1%,0%
COC(=O)C1=C(N)OC2=C(C(=O)CC(C)(C)C2)C1c1ccc(Cl)cc1Cl (centres undefined),0%,-4%
O=C1CC(c2nc(-c3ccccc3)no2)CN1c1ccc2c(c1)OCCO2 (centres undefined),17%,-2%
COc1ccccc1/C=C/C(=O)c1cc(F)ccc1OC(=O)c1ccccc1Br,41%[activator],0%
COc1ccc(OC)c(C2C=C(C(=O)O)Nc3c(C(=O)Nc4ccccc4OC)cnn32)c1 (centres undefined),4%,16%
O=C(CSc1nc(-c2cccs2)nc2ccccc12)NCc1ccccc1,2%,12%
CCCCNC(=O)COC(=O)c1cc(C)nc2ccccc12,5%,15%
CCOC(=O)c1c(N)n(-c2ccc(C)c(Cl)c2)c2nc3ccccc3nc12,-17%,-14%
CC(OC(=O)c1ccc2c(c1)NC(=O)CS2)C(=O)Nc1ccc(C(N)=O)cc1 (centres undefined),-8%[1.06 µM],-8%
CCOC(=O)c1cccc(NC(=O)c2ccc3nc(CCc4ccccc4)oc3c2)c1,-18%,32%[activator]
Cc1ccc(C2=NN(S(=O)(=O)c3ccc(F)cc3)C(c3ccc4nccnc4c3)C2)cc1 (centres undefined),23%,215%[activator]
Cc1cc(NC(=O)Cn2c(=O)n(-c3ccc(C)c(C)c3)c(=O)c3sccc32)no1,-11%,54%[activator]
CCCOC(=O)c1ccccc1OC(=O)c1ccc(Cl)cc1Cl,6%,4%
O=C(/C=C/c1ccccc1Cl)Nc1ccccc1-c1ccccc1,29%,98%[activator]
CC(=O)Nc1nc2ncccn2c1-c1ccc(F)c(F)c1,-1%,15%
COc1ccc(OC)c(-n2c3c(cc(-c4nc(-c5ccc(Cl)cc5)cs4)c2=O)C(=O)CC(C)(C)C3)c1,-8%,-7%
COc1cc(Cl)c(C)cc1NC(=O)c1nn(C)c2c1CSc1ccccc1-2,8%,-5%

Individual results from the results shown:
For 2A firefly, `COc1ccccc1/C=C/C(=O)c1cc(F)ccc1OC(=O)c1ccccc1Br` shows 0%
For 2A Renilla, `CCOC(=O)c1cccc(NC(=O)c2ccc3nc(CCc4ccccc4)oc3c2)c1` shows -18%
For 2A Renilla, `CCCOC(=O)c1ccccc1OC(=O)c1ccc(Cl)cc1Cl` shows 6%
For 2A firefly, `Cc1ccc(C2=NN(S(=O)(=O)c3ccc(F)cc3)C(c3ccc4nccnc4c3)C2)cc1` (centres undefined) shows 215%[activator]
For 2A Renilla, `CC(OC(=O)c1ccc2c(c1)NC(=O)CS2)C(=O)Nc1ccc(C(N)=O)cc1` (centres undefined) shows -8%[1.06 µM]
For 2A firefly, `COc1ccc(OC)c(C2C=C(C(=O)O)Nc3c(C(=O)Nc4ccccc4OC)cnn32)c1` (centres undefined) shows 16%

Reformatted: four of the compounds above
Results follow in this order: 2A Renilla | 2A firefly
O=C(Nc1ccc2c(c1)OCCO2)c1cc2cc(Cl)ccc2[nH]1
→ 8% | 107%[activator]
O=C(c1ccc(F)cc1)N(C1CCCC1)C1CC1
→ -14% | -5%
COc1ccc(OC)c(NC(=O)Cn2c(=O)n(-c3ccc(Cl)cc3)c(=O)c3c(C)c(C)sc32)c1
→ -12% | -21%
COc1cc2c(cc1OC)/C(=C/S(=O)(=O)c1ccc(C)c(C)c1)NCC2
→ 190%[activator] | 13%

Later entries:
SMILES,2A Renilla,2A firefly
CCOc1ccc(CNC(=O)c2cc(=O)[nH]c3ccc(S(=O)(=O)N4CCCCC4)cc23)cc1,-1%,-10%
COC(=O)c1scc(-c2ccc(C)cc2)c1S(=O)(=O)N1CCN(c2cccc(OC)c2)CC1,51%[activator],-17%
Cc1cc(C(=O)CSc2nnc(CN3CCCC3)n2-c2ccccc2)c(C)n1CC(F)(F)F,-16%,-15%
COCCN(Cc1cccs1)S(=O)(=O)c1ccc(Br)cc1Cl,38%[activator],-8%
Cc1ccc(Cn2c(=O)n(Cc3ccccc3Cl)c(=O)c3cccnc32)cc1,9%,-9%
C/C(=N/Nc1ccc(S(N)(=O)=O)cc1[N+](=O)[O-])c1ccccc1F,-28%,20%
CCCC(=O)Nc1cc(-c2nnc3c4ccccc4c(C)nn23)ccc1C,-4%,28%
O=C(CN1C(=O)S/C(=C\c2cccc(Cl)c2)C1=O)Nc1ccc2oc(=O)ccc2c1,-1%,2%
O=S(=O)(Nc1nc2ccccc2nc1NCc1ccc(F)cc1)c1ccc(F)cc1,9%,1%
O=C(O)C(c1c[nH]c2ccccc12)N1CCN(C/C=C/c2ccccc2)CC1 (centres undefined),-3%,-3%
CCCn1c(=N)c(C(=O)NC2CCCC2)cc2c(=O)n3cc(C)ccc3nc21,-18%,-29%
Cc1ccccc1CNC(=O)c1cccn2c(=O)c3ccccc3nc12,50%[activator],147%[activator]
Cc1ccc(CN2C(=O)C(O)(CC(=O)c3c(C)n[nH]c3C)c3ccccc32)cc1 (centres undefined),48%[activator],3%
Cc1ccc(C)c(N2CCN(CCCNC(=O)Nc3ccc(Cl)cc3)CC2)c1,-8%,-27%
Cc1ccc(C)n1-c1nnc(N2CCCC(C(=O)NCc3cccc(Cl)c3)C2)s1 (centres undefined),-3%,0%
O=C(Nc1ccc2oc(-c3ccncc3)nc2c1)c1ccc(Cl)cc1,2%,17%
Cc1cccc(-n2c(=O)c3c(c4cc(C)ccc4n3C)n(C)c2=O)c1,-8%,12%
CCc1ccc(-c2cn[nH]c2C=O)cc1,14%,3%
CSc1cccc(NC(=O)NC(c2ccccc2)c2nnc(-c3ccccc3Cl)o2)c1 (centres undefined),69%[activator],9%
Cc1ccc(Cl)cc1NC(=O)c1oc2c(c1C)-c1[nH]ncc1CC2,2%,6%

Later entries
SMILES,2A Renilla,2A firefly
CC(NC(=O)c1cc(-c2ccncc2)nc2ccccc12)c1cccs1 (centres undefined),28%,16%
CC(=O)NC12CC3CC(C1)CC(C(=O)NCCCC1CCCC1)(C3)C2,0%,14%
O=C(Nc1cc(F)ccc1F)c1ccc(CN2CC(=O)N3CCCCC3C2=O)cc1 (centres undefined),-14%,-8%
CCn1c2ccccc2c2cc(NC(=O)COc3ccc(C)c(C)c3)ccc21,-5%,-2%
O=C(NCc1ccc(Cl)cc1)C1CCN(c2ncnc3c2nc2n3CCCCC2)CC1,3%,0%
CCCN1C(SCC(=O)N2CCCCCC2)=NS(=O)(=O)c2ccccc21,7%,-13%
CC(C)CCNC(=S)Nc1ccc(Cl)cc1Cl,381%[activator],111%[activator]
COC(=O)c1ccc(NC(=O)c2nc3ccccc3nc2N2CCCC2)cc1,15%,17%
COc1ccc2c(c1)CCc1c(C(=O)Nc3c(C)nn(Cc4ccccc4Cl)c3C)noc1-2,-10%,?
CCN(CC)CCCNC(=O)c1nn(C)c2c1CSc1ccccc1-2,-16%,-14%
CC1CCCC(NC(C(=O)NC2CC2)c2ccccc2)C1C (centres undefined),3%,-1%
COC(=O)c1sccc1S(=O)(=O)N(CC(=O)Nc1cccc(OC)c1)c1ccc(Cl)cc1,71%[activator],6%
COC(=O)N1CCCc2cc(S(=O)(=O)N3CCN(c4ccccc4)CC3)ccc21,1%,-18%
Cc1ccc(N2CC(NC(=O)CCc3ccccc3)CC2=O)cc1C (centres undefined),-2%,-26%
Cc1nnc(NC(=O)C(Sc2ccccc2)c2ccccc2)s1 (centres undefined),-6%,-6%
COc1ccccc1NC(=O)c1ncoc1-c1ccco1,-4%&4%,51%&13%[activator]
O=C(c1ccc2c(c1)N(Cc1ccc(Cl)cc1)C(=O)c1ccccc1S2=O)N1CCOCC1 (centres undefined),31%[activator],7%
Cc1nnc(NC(=O)CCc2ccc(-c3ccccc3)o2)s1,13%,0%
COc1ccccc1C(=O)Nc1ccc(C(=O)OCc2cc(=O)n3nc(C)sc3n2)cc1,-2%,80%[activator]
CCCCN(CCCC)c1nc2ccccc2nc1C(C#N)C(=O)OC(C)C (centres undefined),-6%,-8%

Other records.
SMILES,2A Renilla,2A firefly
CC(Oc1ccc(Cl)cc1)C(=O)NC(C)c1ccccc1 (centres undefined),9%,13%
N#Cc1nc(-c2ccc(OCc3ccccc3)cc2)oc1NCCN1CCOCC1,0%,-15%
Cc1cc(=S)n2cn[nH]c2n1,0%,0%
N#Cc1ccc(Cc2cnc(NC(=O)c3cccs3)s2)c(C(F)(F)F)c1,9%,16%
COc1ccccc1-c1cc(NC(=O)CCOC(C)C)n[nH]1,41%[activator],89%[activator]
CCc1ccc(NC(=O)N2CCC(CN3CCc4ccccc4C3)CC2)cc1,-14%,26%
CCc1ccccc1NC(=O)CCc1c(C)nn(-c2ccc(N3CCOCC3)nn2)c1C,-2%,8%
CCn1c(C)c(C)c2cc(C(=O)NCc3cccc(C)c3)ccc21,23%,-13%
CCc1ccccc1NC(=O)c1cc2c(Cl)nc3ccccc3c2s1,-3%,-21%
O=C(CN1C(=O)c2ccccc2C1=O)Nc1cnc2ccccc2c1,-5%,35%[activator]
Cc1ccccc1NC(=O)Cn1c(=O)n(-c2ccc(CC(=O)NCC3CCCO3)cc2)c(=O)c2ccccc21 (centres undefined),-2%,5%
CC(=O)NCCCCCC(=O)NCC(C)(c1ccccc1)c1ccccc1,-2%[1.06 µM],-4%
CCOc1ccc(S(=O)(=O)N(CC(=O)NCCSCc2ccc(C)cc2)c2ccccc2)cc1,-7%,-14%
CCCCCSc1ccc(/C=C/C(=O)O)cc1,0%,0%
CCCCNC(=O)c1cc2cc(OCC)ccc2n1C,0%,0%
CN(C)c1ccc(NC(=O)c2cc3cc(F)ccc3[nH]2)cc1,0%,133%[activator]
COc1ccc(/C=C/C(=O)Nc2cc(-c3nc4ccccc4o3)ccc2OC)cc1,-4%,10%
O=C(O)c1sc(Nc2ccccc2)nc1-c1ccccc1,-7%,-6%
CCOc1ccc(NC(=O)CCC(=O)N2CC(C)Oc3ccc(C)cc32)cc1 (centres undefined),-3%,-12%
Cc1ccccc1Nc1nnc(-c2ccc(C)c(S(=O)(=O)NCC3CCCO3)c2)c2ccccc12 (centres undefined),0%,?

(continued)
SMILES,2A Renilla,2A firefly
Cc1cc(NC(=O)COCc2cc(-c3ccc(F)cc3)on2)ccc1Br,-28%,-20%
Cn1nc(C(=O)OCc2nc(-c3ccc(Cl)cc3)no2)c2ccccc21,-15%,26%
CC(OC(=O)c1ccc2c(c1)NC(=O)CS2)C(=O)N1CC(=O)Nc2ccccc21 (centres undefined),-13%[1.06 µM],26%
CCN(CC)C(=O)c1sc2c(c1C)c(=O)n(-c1ccccc1)c(=O)n2CC(=O)N(CC)c1cccc(C)c1,10%,8%
Cc1nc(N2CCOCC2)cc(N2CCN(C(=O)c3cccc(C(F)(F)F)c3)CC2)n1,?,?
Cc1cccc(-c2nc(CCNC(=O)Cc3ccc(F)cc3)cs2)c1,4%,1%
Cn1ccnc1C(NC(=O)Cc1ccc(Cl)cc1Cl)c1ccccc1F (centres undefined),-3%,-5%
CCOC(=O)C1=C(Nc2ccccc2)O/C(=C\c2ccccc2C(F)(F)F)C1=O,?,?

These rows are one share of the data; count on the stated rates, not on these rows.
